Bioassay records as filed in PubChem BioAssay.
BJeLR viability = kills HRASV12-expressing BJeLR cells. BJeLR (HRASV12) viability, CellTiter-Glo ATP luminescence, 48 h; reference of the scale not given here. inhibition, % (concentration not given with the values). hit rate 0.17% among 300,000. AID 1554;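 active means replicate mean above 50%; inconclusive means above 50% but judged a plate artefact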;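 further: 50 nL library stock added to about 25 µL; numbers are from one replicate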
PrP 5UTR inh = inhibition of PrP 5' UTR reporter expression. cell-based PrP 5' UTR mRNA reporter, plate reader. inhibition, % (concentration not given with the values). hit rate 0.35% among 340,000;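 active means every replicate at 50% or more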;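 further: 0 = median of the neutral control wells; tested in H4 reporter cells; numbers are from one replicate; inactives centre near -14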
Bead autofluor = compound fluorescence in toxin protease inhibitor counterscreen. hit rate 3.1% among 360,000. fluorescence intensity (no concentration beside the values). AID 624483. compound autofluorescence counterscreen, microsphere flow cytometry; stronger effect = higher value;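 active means at least 3 SD above the mean of all compounds, about 16000 in these data; inconclusive means too few beads counted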;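 further: 100 nL of 1 mM stock went into each well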
RN4220 kill = S. aureus RN4220 growth inhibition. OD600, 16 h. inhibition, % (test concentration not listed). hit rate 0.33% among 330,000. AID 1259311;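 active means z-score of -3 or lower and OD600 up to 0.18 on both plates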;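 further: plate controls were untreated cells for no effect and reference antibiotic for full effect; stock transfer was 100 nL into about 80 µL; one replicate is shown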
ugtP null kill = compounds lethal to S. aureus RN4220 ugtP deletion mutant | hit rate 0.54% among 330,000 | growth inhibition, % (concentration not given with the values) | OD600 growth, 16 h; some inactives read as strong as hits;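 active means z-score under -3 and OD600 up to 0.15 on both plates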;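 further: plate controls were untreated wells for no effect and antibiotic for full effect; wells of about 80 µL received 100 nL stock; the first replicate is given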
Mtb hypoxia rep = Mtb hypoxia fluorescent reporter inhibition; M. tuberculosis hypoxia-regulated fluorescent reporter, fluorescence; fluorescence inhibition, % (concentration not given with the values); hit rate 0.1% among 300,000;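 active means 35 to 45% if threefold the growth effect, above 45% if 1.5-fold the growth effect; inactive means the rest, general growth blockers included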;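 further: wells of about 50 µL received 100 nL stock; 0% = vehicle wells and 100% = reference inhibitor wells; whole bacteria with a GFP reporter of the hypoxia response; strong numbers were not always called active; many hits fall short of the cut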
Mtb hypoxia rep growth = also measured in Mtb hypoxia rep; calls as there; growth inhibition, %; measured here: M. tuberculosis growth (absorbance);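 0% = vehicle and 100% = reference antibiotic; read after six days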
* = called active by the depositor; ? = inconclusive; · = not tested or not shown; & = joins results of further samples.

entry	SMILES	BJeLR viability	PrP 5UTR inh	Bead autofluor	RN4220 kill
1	O=C(Nc1ccccc1-c1nc2ccccc2s1)c1cccnc1	-5	22	1974	3.6
2	CSc1cccc(N2CC(C(=O)N3CCN(S(=O)(=O)c4ccccc4Cl)CC3)CC2=O)c1 (configuration not stated)	·	-24	2834	3.5
3	COc1ccc(CCCC(=O)N/N=C/c2ccc(C)cc2)cc1	11	-13	4789	·
4	Cn1c(SCC(=O)NCC2CCCO2)nnc1-c1ccc(Cl)cc1 (configuration not stated)	·	-23	3120	5.6
5	O=C(CN1CCOc2ccccc21)N1CCC(Cc2ccccc2)CC1	-7	-2	4592	1.4
6	COc1ccc(C)cc1S(=O)(=O)N1CCN(C(=O)c2ncoc2-c2ccc(C)cc2)CC1	0	-17	4188	1.6
7	O=C1C2C3C=CC(C3)C2C(=O)N1CCN1CCN(S(=O)(=O)/C=C/c2ccccc2)CC1 (configuration not stated)	0	-13	3615	0.2
8	CCCCCc1c(C)nc(Nc2ccccc2)[nH]c1=O	8	-15	3063	-4.5
9	CSc1nccc(Oc2cccc(C#N)c2)n1	0	-8	2452	0.6
10	COc1ccc(C=CC(=O)Oc2cccc(C=NNC(=O)COc3c(C)cccc3C)c2)cc1	·	·	·	-2.3
11	Cc1ccc2nc(SCC(=O)c3ccc4c(c3)OCO4)[nH]c2c1	-1	-25	5248	18
12	O=C(Nc1ccncc1)C1CCN(S(=O)(=O)c2cccs2)CC1	-13	-22	4642	6.4
13	Cc1noc(C)c1CSCC(=O)N(CC(C)C)c1c(N)n(Cc2ccccc2)c(=O)[nH]c1=O	1	-10	5885	1.6
14	O=C(CCc1nnc(-c2ccsc2)o1)N1CCCCC1CCn1ccnc1 (configuration not stated)	-5	-36	4032	3.8
15	Cc1cccc(C)c1N1C(=O)C(Cl)=C(N2CCCC2)C1=O	4	-12	3100	3.2

entry	ugtP null kill	Mtb hypoxia rep	Mtb hypoxia rep growth
1	0	-2	-5
2	3	-2	4
3	·	·	·
4	13	5	-8
5	-1	·	·
6	-2	0	1
7	5	6	-1
8	-4	4	0
9	6	0	8
10	-1	0	13
11	-14	4	-2
12	6	10	0
13	2	8	9
14	-6	2	11
15	5	-7	1

Further results.
entry	SMILES	BJeLR viability	PrP 5UTR inh	Bead autofluor	RN4220 kill
16	O=C(O)CC1Sc2nc3ccccc3n2C1=O (configuration not stated)	6	-8	2623	-14
17	O=C(NC1CCCCC1)c1ccc([N+](=O)[O-])cc1	·	-42	3560	1.7
18	CCOC(=O)N1CCC(Nc2c(NCCCN(C)Cc3ccccc3)c(=O)c2=O)CC1	-7	-6	5953	1.6
19	CSc1ccccc1OCc1cc(C(=O)N2CCN(C)C(c3ccccc3)C2)no1 (configuration not stated)	3	-13	6221	2.4
20	CCC(C)N(C(=O)CSc1nc(-c2ccccc2)cs1)C1CCS(=O)(=O)C1 (configuration not stated)	-14	-6	2745	20
21	CCCn1nnc(NC(=O)c2ccc3c(c2)OCO3)n1	-5	-45	3940	5.9
22	Cc1cccc(N2CCN(C(=O)CN3CCOc4ccccc43)CC2C)c1 (configuration not stated)	-6	-14	4586	2.1
23	Cc1cc(NC(=O)c2ccc(C)s2)n(-c2ccccc2)n1	-9	-2	9068	-0.6
24	COc1cccc(CN2CC(C(=O)NCc3ccc(Cl)s3)CCC2=O)c1 (configuration not stated)	-2	-17	5120	1.3
25	CCN(c1ccccc1)S(=O)(=O)c1ccc(C(=O)Nc2nccs2)cc1	-4	-5	2731	4.0
26	CC(=NNS(C)(=O)=O)c1ccc(C)cc1	·	·	·	-2.4
27	Cc1cc(C)c(OCCCCN2CCNCC2)c(C)c1	-5	-16	4348	3.3
28	O=C(NCCCN1CCCC1=O)c1ccc(NS(=O)(=O)c2ccccc2)cc1	3	-38	6106	0.3
29	CC(C)(C)C(=O)Nc1c2c(nn1-c1ccccc1)CSC2	-14	-12	·	2.3
30	CCCCC(=O)N1C/C=C\[C@H](c2ccc(OC)cc2)N(Cc2ccc(F)cc2)C(=O)[C@@H]1C	10	-20	4020	·

entry	ugtP null kill	Mtb hypoxia rep	Mtb hypoxia rep growth
16	-6	14	2
17	7	·	·
18	10	9	8
19	-18	-9	13
20	6	20	4
21	14	-2	11
22	-1	·	·
23	5	4	16
24	8	4	7
25	-7	5	13
26	-3	0	2
27	9	13	10
28	3	-3	2
29	-7	1	7
30	·	·	·

Only ugtP null kill, for 5 of the compounds above:
#	SMILES	ugtP null kill
20	CCC(C)N(C(=O)CSc1nc(-c2ccccc2)cs1)C1CCS(=O)(=O)C1 (configuration not stated)	6
26	CC(=NNS(C)(=O)=O)c1ccc(C)cc1	-3
16	O=C(O)CC1Sc2nc3ccccc3n2C1=O (configuration not stated)	-6
18	CCOC(=O)N1CCC(Nc2c(NCCCN(C)Cc3ccccc3)c(=O)c2=O)CC1	10
27	Cc1cc(C)c(OCCCCN2CCNCC2)c(C)c1	9

(listing goes on)
entry	SMILES	BJeLR viability	PrP 5UTR inh	Bead autofluor	RN4220 kill
31	Cc1ccc(-n2nnc3c(=O)n(Cc4cc(C)ccc4C)cnc32)cc1	2	-9	9118	-1.6
32	Cc1ccccc1NC(=O)NCC1CCN(C(=O)OC(C)(C)C)CC1	1	-6	·	2.6
33	O=C(c1cn(-c2ccccc2)nc1-c1cccs1)N1CCOCC1	-8	-19	2143	-0.6
34	Cc1ccc(-c2cc(C(=O)NCCCN3CCOCC3)no2)cc1	-2	-10	10761	6.1
35	O=C(O)CC(NC(=O)CCC1CCCCC1)c1cc([N+](=O)[O-])ccc1Cl (configuration not stated)	-6	-11	3925	0.1
36	O=C(O)CCCCCN1C(=O)c2ccc(C(=O)O)cc2C1=O	1	-18	9976	8.8
37	Cc1ccccc1C(=O)NNc1ccc(-c2csnn2)cc1	2	-28	3987	5.2
38	O=C1c2ccc(Br)cc2C(=O)N1c1ccc(Cl)cn1	4	-9	3279	3.6
39	CC1(c2ccc(Cl)cc2)NC(=O)N(CN2CCOCC2)C1=O (configuration not stated)	-2	-17	3746	0.6
40	CN1C2CCC1CC(NS(=O)(=O)c1cc(Cl)c(Cl)cc1Cl)C2 (configuration not stated)	-6	11	?	3.9
41	CCn1c(N2CCN(C(=O)Nc3ccc(F)cc3)CC2)nc2ccccc21	-2	-20	3358	2.7
42	O=[N+]([O-])c1ncccc1OCc1ccc(Br)cc1F	3	-13	3713	-2.0
43	COc1cc(/C=N/n2c(C3CCCCC3)n[nH]c2=S)cc(OC)c1O	2	-19	3605	·
44	O=C(CNC(=O)c1ccccc1F)c1ccccc1	-4	-42	3192	3.6
45	O=C(NCc1cccc(Cl)c1)c1cccc(C(F)(F)F)c1	7	·	8553	6.5

entry	ugtP null kill	Mtb hypoxia rep	Mtb hypoxia rep growth
31	7	2	2
32	10	-4	3
33	-7	·	·
34	-2	17	6
35	2	2	11
36	1	16	6
37	-2	13	-1
38	-1	-1	2
39	18	8	6
40	14	14	-15
41	7	2	13
42	9	5	-3
43	·	·	·
44	13	3	-1
45	-14	11	5

Following part
entry	SMILES	BJeLR viability	PrP 5UTR inh	Bead autofluor	RN4220 kill
46	C=CCn1c(SCc2cccc(C#N)c2)nnc1-c1ccccc1O	-10	-24	4226	4.4
47	CCC(=O)Nc1cccc(C(=O)/C=C/c2cc(Br)ccc2OC)c1	-1	-6	3493	41
48	O=C(CNC(=O)c1ccccc1F)N/N=C\C=C\c1ccccc1	-4	-5	5171	·
49	O=C(CSc1ncn[nH]1)NC12CC3CC(CC(C3)C1)C2	1	-38	2764	13
50	CC(C)CNS(=O)(=O)c1ccc(OCC(=O)Nc2ccc3c(c2)OCCO3)cc1	-7	-3	2385	1.8
51	Cc1c(C(=O)N(C)C)sc2nc(-c3ccccn3)[nH]c(=O)c12	-6	-19	2296	9.6
52	CC(=O)NS(=O)(=O)c1ccc(NC(=O)/C=C/c2ccc(C)o2)cc1	-3	-6	4502	1.0
53	CC(=O)N1CCC(C(=O)N2CCN(S(=O)(=O)c3ccc(Cl)s3)CC2)CC1	-6	-15	4552	1.7
54	O=C(CN1C(=O)NC2(CCCCC2)C1=O)Nc1cccc(S(=O)(=O)N2CCCC2)c1	·	-16	4289	1.0
55	O=C(CNC(=O)c1cccs1)NCC(=O)OCc1cccc(Cl)c1	12	-3	5592	5.6
56	NC(=O)c1nsc(C(=O)N(c2ccc3c(c2)OCCO3)C(C(=O)NCC2CCCO2)c2ccc(F)cc2)c1N (configuration not stated)	-6	-19	2679	-1.4
57	Cc1occc1C(=O)Nc1nnc(C2CCCCC2)s1	2	-52	22252*	3.5
58	CCOC(=O)c1ccc(N2C(=O)C(CC(N)=O)N(CCc3ccc(OC)c(OC)c3)C2=S)cc1 (configuration not stated)	-20	-3&-24	4497	3.5
59	CC1=CC(C)(C)n2c(O)c(N=N)c3cc(C)cc1c32	2	-17	10467	-3.0
60	CCc1cccc(NC(=O)C2CCN(S(=O)(=O)c3ccc4c(c3)NC(=O)CO4)CC2)c1	8	-5	4509	-1.0

entry	ugtP null kill	Mtb hypoxia rep	Mtb hypoxia rep growth
46	3	·	·
47	2	7	11
48	·	·	·
49	1	6	-3
50	11	3	4
51	-2	·	·
52	-10	-3	8
53	11	6	2
54	-4	-1	-2
55	7	11	0
56	6	-2	2
57	71	1	8
58	-6	3	6
59	5	16	6
60	1	4	-3

The results go on.
entry	SMILES	BJeLR viability	PrP 5UTR inh	Bead autofluor	RN4220 kill
61	Cc1cc(C(=O)CSc2nnnn2C)c(C)n1-c1cccc(F)c1	-14	-150	6590	7.0
62	COc1ccc(C2C(=O)N(CCc3ccccc3)CC(=O)N2C2CCCCC2)cc1 (configuration not stated)	-7	-22	25113*	1.5
63	COc1ccc(CNC(=O)c2sccc2-c2ccccc2)cc1OC	-3	-17	5510	9.8
64	CN(C)S(=O)(=O)c1cccc(NC(=O)COC(=O)CCc2nc3ccccc3s2)c1	1	10	4132	2.9
65	CC1CC(C)CN(c2ccc(C(=O)OCC(=O)NC3CCCc4ccccc43)cc2[N+](=O)[O-])C1 (configuration not stated)	4	-22	3142	-8.3
66	O=C(COc1ccc(CO)cc1)Nc1ccc(F)cc1	0	-29	6473	6.5
67	O=c1cc(-c2ccccc2)nc2cc(-c3ccc(Br)cc3)[nH]n12	14	·	4125	3.8
68	CC(=O)NC(=S)Nc1ccccc1F	5	-5	6023	2.6
69	COc1cccc(Cn2c(=O)c3ccccc3n3nc(C)cc23)c1	6	-20	4124	5.5
70	O=C(CCc1nc(-c2ccccc2Cl)no1)NC1CCCCC1	-7	-18	3710	-0.9
71	O=C(c1ccc(S(=O)(=O)Nc2cccc(C(F)(F)F)c2)cc1)N1CCC1	6	3	6748	5.0
72	CCN1C(=O)[C@H]2[C@@H](c3ccc(C)cc3)N3C(=O)N(c4cccc(Cl)c4)C(=O)[C@@]3(Cc3ccccc3)[C@H]2C1=O	-8	-19	3357	·
73	Cc1ccsc1C(=O)OCC(=O)N(C)C1CCCCC1	·	-75	8558	3.5
74	CCCOc1ccc(OCCSc2ncccn2)cc1	-7	-136	4596	13
75	O=C(OCC(=O)N1CCN(C(=O)c2ccco2)CC1)c1cccc(F)c1	·	3	2741	7.8
76	COC(=O)c1ccc([C@H]2CC(=O)O2)cc1	0	-14	2945	·
77	Cc1nc2ccc([N+](=O)[O-])cc2c(=O)n1Cc1ccc(F)cc1	2	-20	4013	7.8
78	CC(NC(=O)c1ccco1)C(c1cccs1)N1CCOCC1 (configuration not stated)	6	6	5746	-8.6

entry	ugtP null kill	Mtb hypoxia rep	Mtb hypoxia rep growth
61	-6	-9	-15
62	0	10	3
63	7	16	5
64	8	·	·
65	-10	·	·
66	11	0	-3
67	-5	7	0
68	3	11	1
69	4	14	0
70	13	4	1
71	1	17	2
72	·	·	·
73	8	-3	1
74	18	·	·
75	15	5	-4
76	·	·	·
77	16	9	11
78	0	3	10

Compounds as they come (roughly 4% active in at least one column).
